p53 mut binder: binds human mutant p53 on microarray | small molecule microarray binding, anti-GST fluorescence | calls only | 17,000 compounds, 0.4% hits;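 active = compounds whose four printed spots each glow above background more than chance allows, each with a p-value under 7%; compounds were printed on slides so no solution concentration is given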;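 also: about 2 pmol printed per array spot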
c-Myc SMM: c-Myc (human) binding; calls only; small molecule microarray, His-c-Myc binding, anti-His fluorescence; AID 624141; P01106; 17,000 compounds, 1.5% hits;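 active = spot fluorescence over background with P-value below 7% in all four replicate spots, showing protein binding; compounds were printed on slides so no solution concentration is given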;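 also: score is binary with 100 for all four spots passing and 0 otherwise; about 2 pmol printed per array spot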
Target sequence (P01106 whole entry, looked up): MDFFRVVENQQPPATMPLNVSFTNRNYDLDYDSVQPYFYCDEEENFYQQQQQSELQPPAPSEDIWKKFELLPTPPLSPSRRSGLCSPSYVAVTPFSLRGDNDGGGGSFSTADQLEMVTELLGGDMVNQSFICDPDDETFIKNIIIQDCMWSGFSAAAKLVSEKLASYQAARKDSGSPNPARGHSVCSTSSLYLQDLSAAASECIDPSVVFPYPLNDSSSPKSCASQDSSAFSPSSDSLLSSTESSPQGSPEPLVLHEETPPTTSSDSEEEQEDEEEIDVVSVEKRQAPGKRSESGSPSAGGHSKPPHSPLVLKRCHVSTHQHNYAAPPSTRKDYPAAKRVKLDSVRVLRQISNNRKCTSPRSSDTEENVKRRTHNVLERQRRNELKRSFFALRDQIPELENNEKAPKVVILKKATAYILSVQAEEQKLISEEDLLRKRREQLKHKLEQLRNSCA
STAT3 binder: binders of human STAT3; Small molecule microarray, His-STAT3 binding, anti-His fluorescence; 17,000 compounds, 0.2% hits; calls only; P40763; AID 624138;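 active = compounds whose four printed spots each show fluorescence over background unusually high for their array block, chance value under 7%; compounds were printed on slides so no solution concentration is given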;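 also: about 2 pmol printed per array spot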
ID4 SMM: binds human ID4 protein on microarray; calls only; P47928; small molecule microarray, Flag-ID4 binding, fluorescence F/B; 31,000 compounds, 1.2% hits;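 active = spot signal over background at p below 0.07 in all four prints; compounds were printed on slides so no solution concentration is given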;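 also: a binder raises fluorescence above local background on the spot; about 2 pmol printed per array spot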
Target sequence (P47928 whole entry, looked up): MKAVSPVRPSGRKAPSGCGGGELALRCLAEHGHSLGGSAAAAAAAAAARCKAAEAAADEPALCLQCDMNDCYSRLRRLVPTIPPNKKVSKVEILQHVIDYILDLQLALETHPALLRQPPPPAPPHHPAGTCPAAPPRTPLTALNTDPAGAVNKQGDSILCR
Calls only; i = inactive; · = not tested or not shown; + = active, no number. These rows are one share of the data (hit frequency here may not be typical).

SMILES	p53 mut binder	c-Myc SMM	STAT3 binder	ID4 SMM
C[C@H](CO)N1C[C@H](C)[C@@H](CN(C)C(=O)NC2CCCCC2)Oc2ccc(NC(=O)Cc3ccccc3)cc2CC1=O	i	i	i	i
NC(=O)c1cc([N+](=O)[O-])ccc1NCc1cccnc1	i	i	i	i
Cc1ccc(S(=O)(=O)N(C)C[C@H]2OCCCC[C@H](C)Oc3ccc(NC(=O)Nc4ccc(C(F)(F)F)cc4)cc3C(=O)N([C@@H](C)CO)C[C@@H]2C)cc1	i	i	i	·
C[C@@H]1CN([C@H](C)CO)C(=O)Cc2cc(NC(=O)Nc3ccc4c(c3)OCO4)ccc2O[C@@H]1CN(C)CC1CC1	i	i	i	i
CNC[C@H]1Oc2ccc(NS(C)(=O)=O)cc2CC(=O)N([C@@H](C)CO)C[C@H]1C	i	i	i	i
COc1ccc(CN(C)C[C@@H]2Oc3ccc(NC(=O)Cn4cnnn4)cc3CC(=O)N([C@@H](C)CO)C[C@H]2C)cc1	i	i	i	i
C[C@@H]1CN([C@@H](C)CO)C(=O)Cc2cc(NC(=O)C3CCCCC3)ccc2O[C@H]1CN(C)C(=O)Nc1ccc(C(F)(F)F)cc1	i	i	i	·
Cc1c(NC(=O)COc2ccccc2Cl)cccc1C(=O)O	i	i	i	i
C[C@H](CO)N1C[C@H](C)[C@@H](CN(C)C)Oc2c(NS(=O)(=O)c3ccccc3)cccc2C1=O	i	i	i	i
CNC[C@@H]1Oc2c(NS(=O)(=O)c3cn(C)cn3)cccc2C(=O)N([C@H](C)CO)C[C@@H]1C	i	i	i	i
C[C@@H]1CN([C@H](C)CO)C(=O)Cc2cc(NC(=O)CCC(F)(F)F)ccc2O[C@H]1CN(C)C(=O)Nc1ccccc1	i	i	i	i
CS(=O)(=O)N(CC(=O)Nc1cccc(Br)c1)c1cccc(Cl)c1	i	i	i	i
C[C@@H]1CN([C@H](C)CO)C(=O)c2cc(NS(=O)(=O)c3ccccc3)ccc2O[C@@H](C)CCCCO[C@H]1CN(C)Cc1ccccc1	i	i	i	i
O=C1CC(O)[C@H]2[C@@H]3N1c1ccccc1[C@@]31CCN3C/C(=C/CO)[C@@H]2C[C@H]31 (some centres not stated)	i	i	i	·
COc1ccc(CN(C)C[C@H]2Oc3ccc(NS(=O)(=O)c4ccc(Cl)cc4)cc3CC(=O)N([C@@H](C)CO)C[C@@H]2C)cc1	i	i	i	i
CC(C)c1ccc(OCC(=O)Nc2ccccc2C#N)c(Br)c1	i	i	i	i
Cc1nc2cc(NS(=O)(=O)c3cccc4cccnc34)ccc2s1	i	i	i	i
CCCCC[C@H](O)/C=C/[C@@H]1[C@@H](C/C=C\CCCC(=O)O)[C@H]2CO[C@@H]1C2	i	i	i	i
CC(=O)O[C@H]1[C@H](Oc2cc(O)cc(O)c2C(=O)c2cc(O)cc(O)c2)O[C@H](CO)[C@@H](OC(=O)c2ccccc2)[C@@H]1O	i	i	i	·
C[C@H]1CN([C@@H](C)CO)C(=O)c2cc(N(C)C)ccc2O[C@H]1CN(C)S(=O)(=O)c1cccs1	i	i	i	i
C[C@@H]1CN([C@@H](C)CO)C(=O)c2cc(N(C)C)ccc2O[C@@H]1CN(C)S(=O)(=O)c1cn(C)cn1	i	i	i	i
C[C@@H]1CCCCO[C@@H](CN(C)C)[C@H](C)CN([C@H](C)CO)C(=O)c2cc(NC(=O)CCC(F)(F)F)ccc2O1	i	i	i	i
C[C@H]1CN([C@@H](C)CO)C(=O)CCCn2cc(nn2)CO[C@@H]1CN(C)Cc1ccccc1	i	i	i	i
Cc1noc(C)c1S(=O)(=O)Nc1ccc2c(c1)CC(=O)N([C@@H](C)CO)C[C@@H](C)[C@@H](CN(C)C(=O)Nc1ccc(F)cc1)O2	i	i	i	i
C[C@@H]1CN([C@@H](C)CO)C(=O)Cc2cc(NS(=O)(=O)c3cccs3)ccc2O[C@@H]1CN(C)Cc1ccc(C(F)(F)F)cc1	i	i	i	i
C[C@@H]1CN([C@@H](C)CO)C(=O)Cc2cc(NC(=O)CCN3CCOCC3)ccc2O[C@H]1CN(C)S(=O)(=O)c1cn(C)cn1	i	i	i	i
C[C@H]1CN([C@@H](C)CO)C(=O)c2cc(NC(=O)Nc3ccc4c(c3)OCO4)ccc2O[C@H]1CN(C)Cc1ccc(C(=O)O)cc1	i	i	i	i
O=C1O[C@H](c2ccccc2)[C@H](c2ccccc2)N2[C@H]1[C@@H](C(=O)O)[C@]1(C(=O)Nc3ccccc31)[C@H]2c1ccc(OCCO)cc1	i	i	i	i
C[C@@H]1CCCCO[C@H](CN(C)C)[C@H](C)CN([C@@H](C)CO)C(=O)c2cc(NC(=O)Nc3cccc4ccccc34)ccc2O1	i	i	i	i
CC1(O)C(O)C(CO)OC1n1cnc2c(NC3CCCC3)nc(Cl)nc21 (configuration not stated)	i	i	i	i
CCCc1c(C)nc2ccc(Br)cc2c1SCCC(=O)O	i	i	i	i
C[C@@H]1CN([C@@H](C)CO)C(=O)c2cccc(NC(=O)c3ccncc3)c2O[C@@H]1CN(C)S(=O)(=O)c1ccc(F)cc1	i	i	i	i
CNC[C@H]1OCCCC[C@@H](C)Oc2ccc(NS(=O)(=O)c3ccccc3)cc2C(=O)N([C@H](C)CO)C[C@@H]1C	i	i	i	i
C[C@@H]1CCCCO[C@H](CN(C)Cc2ccc(C(=O)O)cc2)[C@H](C)CN([C@@H](C)CO)C(=O)c2cc(NC(=O)C3CCCCC3)ccc2O1	i	i	i	i
C=C(Oc1cccc(C(=O)O)c1)C(=O)O	i	i	i	i
C[C@@H]1CN([C@@H](C)CO)C(=O)c2cc(NC(=O)Cn3cnnn3)ccc2O[C@H]1CN(C)C(=O)NC1CCCCC1	i	i	i	i
COc1ccc(N(C(=O)c2ccncc2)S(=O)(=O)c2cccc([N+](=O)[O-])c2)cc1	i	i	i	i
C[C@@H]1CN([C@@H](C)CO)C(=O)CCCn2cc(nn2)CO[C@H]1CN(C)C(=O)Nc1ccc(C(C)(C)C)cc1	i	i	i	i
C[C@@H]1CCCCO[C@@H](CN(C)Cc2ccc(C(=O)O)cc2)[C@H](C)CN([C@@H](C)CO)C(=O)c2cc(NC(=O)Nc3ccccc3)ccc2O1	i	i	i	·
O=C(COc1ccccc1C(=O)O)Nc1ccccc1	i	i	i	i
CCOc1ccc(NC(=O)C(C)Sc2nc3ccc(F)cc3[nH]2)cc1 (configuration not stated)	i	i	i	i
C[C@H]1CN([C@@H](C)CO)C(=O)c2cccc(NS(=O)(=O)c3ccc(Cl)cc3)c2O[C@H]1CN(C)C(=O)Nc1ccc(F)cc1	i	i	i	i
C[C@H]1CCCCO[C@@H](CN(C)C(=O)C2CCCCC2)[C@@H](C)CN([C@@H](C)CO)C(=O)c2cc(N(C)C)ccc2O1	i	i	i	i
C[C@@H]1CN([C@H](C)CO)C(=O)c2cc(NS(=O)(=O)c3cn(C)cn3)ccc2O[C@@H]1CN(C)C	i	i	i	i
C[C@@H]1CN([C@H](C)CO)C(=O)CCCn2nncc2CO[C@H]1CN(C)Cc1ccc2c(c1)OCO2	i	i	i	·
C[C@H]1CN([C@@H](C)CO)C(=O)c2cc(NC(=O)CCCN(C)C)ccc2O[C@@H]1CN(C)S(=O)(=O)c1cccs1	i	i	i	i
COc1ccc(NC(=O)Nc2cccc3c2O[C@@H](CN(C)S(=O)(=O)c2cn(C)cn2)[C@H](C)CN([C@@H](C)CO)C3=O)cc1	i	i	i	i
Cc1c(C(=O)O)sc2nc(SCC(=O)Nc3ccccc3C(F)(F)F)[nH]c(=O)c12	i	i	i	i
Cc1noc(C)c1S(=O)(=O)N(C)C[C@H]1Oc2ccc(NC(=O)NC(C)C)cc2CC(=O)N([C@@H](C)CO)C[C@@H]1C	i	i	i	i
C[C@@H]1CN([C@H](C)CO)C(=O)c2cccc(NC(=O)C3CC3)c2O[C@@H]1CN(C)C	i	i	i	i

Next section
SMILES	p53 mut binder	c-Myc SMM	STAT3 binder	ID4 SMM
C[C@H]1CCCCO[C@H](CN(C)Cc2ccc3c(c2)OCO3)[C@@H](C)CN([C@@H](C)CO)C(=O)c2cc(NS(=O)(=O)c3ccc(F)cc3)ccc2O1	i	i	i	·
CC(C(=O)Nc1cccc(Cl)c1)N(c1ccc(Cl)cc1)S(C)(=O)=O (configuration not stated)	i	i	i	i
COc1ccc(S(=O)(=O)Nc2ccc3c(c2)C(=O)N([C@H](C)CO)C[C@H](C)[C@@H](CN(C)Cc2ccc4c(c2)OCO4)O3)cc1	i	i	i	i
C[C@@H]1CN([C@@H](C)CO)C(=O)c2cccc(NS(=O)(=O)c3ccc(Cl)cc3)c2O[C@H]1CN(C)Cc1ccncc1	i	i	i	i
CC(C)NC(=O)N(C)C[C@H]1Oc2ccc(NC(=O)C3CCCCC3)cc2C(=O)N([C@H](C)CO)C[C@H]1C	i	i	i	·
C[C@H]1CN([C@@H](C)CO)C(=O)c2cccc(NS(=O)(=O)c3cn(C)cn3)c2O[C@H]1CN(C)C(=O)NC1CCCCC1	i	i	i	i
C[C@H](CO)N1C[C@H](C)[C@H](CN(C)Cc2ccc(C(=O)O)cc2)Oc2ccc(NC(=O)NC3CCCCC3)cc2CC1=O	i	i	i	i
C[C@@H]1CN([C@@H](C)CO)C(=O)c2cccc(NC(=O)C3CCOCC3)c2O[C@@H]1CN(C)Cc1ccc(C(F)(F)F)cc1	i	i	i	i
O=C(COc1cc(O)c2c(=O)c3ccccc3oc2c1)c1cccc([N+](=O)[O-])c1	i	i	i	i
C[C@@H]1CN([C@@H](C)CO)C(=O)c2cccc(NS(C)(=O)=O)c2O[C@@H]1CN(C)Cc1ccccc1	i	i	i	i
C[C@@H]1CN([C@@H](C)CO)C(=O)c2cccc(NS(=O)(=O)c3cccs3)c2O[C@H]1CN(C)C(=O)NC1CCCCC1	i	i	i	i
COc1ccc(S(=O)(=O)Nc2cccc3c2O[C@H](CN(C)S(=O)(=O)c2ccc(F)cc2)[C@@H](C)CN([C@H](C)CO)C3=O)cc1	i	i	i	i
C[C@@H]1CN([C@H](C)CO)C(=O)CCCn2cc(nn2)CO[C@H]1CN(C)C(=O)Cc1ccccc1	i	i	i	i
C[C@H]1CN([C@@H](C)CO)C(=O)c2cccc(NC(=O)C3CC3)c2O[C@@H]1CN(C)Cc1ccc(C(F)(F)F)cc1	i	i	i	·
C[C@@H]1CN([C@H](C)CO)C(=O)c2cc(NC(=O)C3CC3)ccc2O[C@@H]1CN(C)S(=O)(=O)c1cccs1	i	i	i	i
COc1ccc(CN(C)C[C@@H]2Oc3ccc(NC(=O)CCC(F)(F)F)cc3C(=O)N([C@@H](C)CO)C[C@H]2C)cc1	i	i	i	i
C[C@H]1CN([C@@H](C)CO)C(=O)c2cc(NC(=O)Cn3cnnn3)ccc2O[C@@H]1CN(C)S(=O)(=O)c1cccs1	i	i	i	i
O=C(COc1ccc(Cl)cc1CO)Nc1ccccc1F	i	i	i	i
O=C(CSc1nnc(-c2ccncc2)n1-c1ccccc1)Nc1c(Cl)cccc1Cl	i	i	i	i
C[C@H](CO)N1C[C@H](C)[C@H](CN(C)CC2CC2)OCCCC[C@H](C)Oc2ccc(NC(=O)C3CCCCC3)cc2C1=O	i	i	i	·
COc1ccc(NC(=O)CSc2n[nH]c(-c3ccc(Cl)cc3Cl)n2)cc1	i	i	i	i
C[C@@H]1CCCCO[C@@H](CN(C)C(=O)Cc2ccccc2)[C@H](C)CN([C@@H](C)CO)C(=O)c2cc(NC(=O)Nc3ccc(F)cc3)ccc2O1	i	+	i	i
COCC1=C2[C@@H](c3ccccc3)OB(O)C[C@@H]2n2c(=O)n(-c3ccccc3)c(=O)n2C1	i	i	i	i
CNC[C@H]1Oc2c(NS(=O)(=O)c3cn(C)cn3)cccc2C(=O)N([C@H](C)CO)C[C@H]1C	i	i	i	i
Cc1ccccc1-c1cc(C(=O)NCCCn2cc(Br)cn2)c2ccccc2n1	i	i	i	i
CCCCCCC(=O)OC1CC(C)(C)NC(C)(C)C1	i	i	i	i
C=C[C@H](COC(C)=O)N(C(=O)OC(C)(C)C)S(=O)(=O)c1ccc(Br)cc1	i	i	i	i
Cc1ccc(S(=O)(=O)N2CCN(c3nc4ccccc4nc3-n3nc(C)cc3C)CC2)cc1	i	i	i	i

Given as comma-separated lines: part of the list above
Compound,p53 mut binder,c-Myc SMM,STAT3 binder,ID4 SMM
COCC1=C2[C@@H](c3ccccc3)OB(O)C[C@@H]2n2c(=O)n(-c3ccccc3)c(=O)n2C1,i,i,i,i
Cc1ccc(S(=O)(=O)N2CCN(c3nc4ccccc4nc3-n3nc(C)cc3C)CC2)cc1,i,i,i,i

Rewritten with bars between the fields: 4 of the compounds above
SMILES | p53 mut binder | c-Myc SMM | STAT3 binder | ID4 SMM
COCC1=C2[C@@H](c3ccccc3)OB(O)C[C@@H]2n2c(=O)n(-c3ccccc3)c(=O)n2C1 | i | i | i | i
Cc1ccccc1-c1cc(C(=O)NCCCn2cc(Br)cn2)c2ccccc2n1 | i | i | i | i
C=C[C@H](COC(C)=O)N(C(=O)OC(C)(C)C)S(=O)(=O)c1ccc(Br)cc1 | i | i | i | i
CNC[C@H]1Oc2c(NS(=O)(=O)c3cn(C)cn3)cccc2C(=O)N([C@H](C)CO)C[C@H]1C | i | i | i | i

Screening data from PubChem.
